Bioassay records deposited in PubChem by several laboratories.
Arbovirus anti: arbovirus infection inhibition. arbovirus infection cell-based antiviral screen. inhibition, % at 10 µM. hit rate 0.37% among 200,000. AID 1251;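 active means inhibition from about 30%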;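 further: bluetongue infection of BSR cells; cell survival read as ATP light after 72 h; 0% = infected wells without compound and 100% = uninfected wells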
Mtb betalactam: beta-lactam sensitization of Mtb H37Rv | M. tuberculosis H37Rv growth with meropenem, percent inhibition; hits of this screen are not shown here | hit rate 0.27% among 330,000 | inhibition, % at 25 µM | AID 434955;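 active means about 74% or more and at least 40 points above the plate without the antibiotic, then above 30% in a dose series; inconclusive means first-round hits that could not be retested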;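 further: growth measured after seven days incubation then overnight dye step; 0% = bacteria only wells and 100% = bacteria with antibiotic; twin plates without the antibiotic show which effects depend on it; some results filed as inactive read as strong as hits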
YopH inh: blocks Yersinia enterocolitica YopH tyrosine phosphatase | fluorescence Ex485/Em525 | inhibition, %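 (about 10 µM by stock and volumes)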 | hit rate 0.16% among 140,000 | AID 898;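 active means inhibition of 50% or more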;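 further: controls were vehicle for no effect and minimum signal wells for full effect; inactives centre near -20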
RecA splice inh: Mtb RecA intein splicing inhibition; P9WHJ3; cell-free RecA intein splicing, fluorescence; inhibition, %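 (about 9 µM by stock and volumes)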; hit rate 0.75% among 290,000; AID 2221; in the data active means inhibition above about 30%; inconclusive means no clear call, values can overlap the other calls;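 further: 0% = vehicle wells and 100% = reference inhibitor control wells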
Target sequence (P9WHJ3 whole entry, looked up, canonical isoform): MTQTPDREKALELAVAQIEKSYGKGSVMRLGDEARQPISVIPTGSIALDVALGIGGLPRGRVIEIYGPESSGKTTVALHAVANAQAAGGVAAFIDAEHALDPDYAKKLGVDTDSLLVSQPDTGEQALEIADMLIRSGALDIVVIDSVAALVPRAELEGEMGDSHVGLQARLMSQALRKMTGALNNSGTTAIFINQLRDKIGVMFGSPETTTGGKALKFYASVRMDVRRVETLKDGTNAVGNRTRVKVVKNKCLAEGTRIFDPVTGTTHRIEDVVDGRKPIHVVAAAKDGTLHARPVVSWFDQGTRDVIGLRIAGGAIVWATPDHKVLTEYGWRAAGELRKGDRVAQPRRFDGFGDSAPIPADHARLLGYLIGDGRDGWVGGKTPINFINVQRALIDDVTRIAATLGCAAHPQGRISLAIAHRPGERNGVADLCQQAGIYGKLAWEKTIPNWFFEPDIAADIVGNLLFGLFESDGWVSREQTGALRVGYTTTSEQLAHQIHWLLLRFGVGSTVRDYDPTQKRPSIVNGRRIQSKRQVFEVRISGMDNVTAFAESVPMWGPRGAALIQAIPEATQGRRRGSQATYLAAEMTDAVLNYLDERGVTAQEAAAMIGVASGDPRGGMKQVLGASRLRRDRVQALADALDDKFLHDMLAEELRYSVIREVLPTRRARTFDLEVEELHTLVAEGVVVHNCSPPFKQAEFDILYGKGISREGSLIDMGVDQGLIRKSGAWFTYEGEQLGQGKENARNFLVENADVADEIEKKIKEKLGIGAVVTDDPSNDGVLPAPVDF
Mtb H37Rv: M. tuberculosis H37Rv growth inhibitors, H37Rv strain (AID 1626); M. tuberculosis H37Rv growth inhibition; higher % means a stronger effect; one-dose inhibition, % at 10 µM; IC50 in µM for titrated hits; hit rate 0.95% among 220,000;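 active means confirmed in a dose series; inconclusive means inhibition above 80% but not taken into the dose series; inactive means below 80% or under 30% at every dose of the series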;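 further: bacteria incubated seven days before Alamar blue readout; 0% = bacteria only wells and 100% = bacteria with antibiotic wells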
Arbovirus anti repeat: recorded beside Arbovirus anti, whose call it bears; inhibition, %; measured here: 10K subset replicate screen; many hits read low in the repeat;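 first of two repeat runs on a subset; 0% = infected and 100% = uninfected wells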
Numbers without * were called inactive; ? = inconclusive; · = not tested or not shown. A portion of the library (hit frequency here may not be typical).

SMILES	Arbovirus anti	Mtb betalactam	YopH inh	RecA splice inh	Mtb H37Rv	others
Cc1sc2ncnc(N3CCC(C(=O)NNC(=O)COc4ccc(Br)cc4)CC3)c2c1C	·	30	·	5.0	·
COc1ccc2c(c1)CCC/C2=N\OC(=O)c1ccccc1F	-2	39	·	1.4	17%
COc1ccc(Cl)cc1S(=O)(=O)Nc1ncn[nH]1	·	9	·	-1.0	·
Fc1ccc(-n2nnnc2-c2cnc(-c3cccs3)nc2C(F)(F)F)cc1	24	0	-31	9.3	-3%
CCOc1ccc(-n2c(SCC(=O)NCc3ccco3)nc3c(c2=O)SCC3)cc1	-2	-8	-35	·	-4%	Arbovirus anti repeat=-3
CC(C)c1ccc(C(CC(=O)O)N2Cc3ccccc3C2=O)cc1 (centres undefined)	·	-3	·	0.0	·
COc1cc(NC(=O)c2ccc(NC3=NC4CS(=O)(=O)CC4S3)cc2)cc(OC)c1OC (centres undefined)	·	-1	·	-0.3	·
O=S(=O)(Nc1cccc(-c2ccc(N3CCOCC3)nn2)c1)c1cc(Cl)ccc1Cl	·	-5	·	0.1	·
CC(C)C(NC(=O)C1CCCCC1)C(=O)NC1CCCC(C)C1C (centres undefined)	·	1	·	-1.4	·
Cc1sc2ncnc(SCc3ccco3)c2c1C	6	1	-28	-1.7	4%

6 entries from above, ordered by SMILES length, low to high.
SMILES	Arbovirus anti	Mtb betalactam	YopH inh	RecA splice inh	Mtb H37Rv	others
Cc1sc2ncnc(SCc3ccco3)c2c1C	6	1	-28	-1.7	4%
COc1ccc(Cl)cc1S(=O)(=O)Nc1ncn[nH]1	·	9	·	-1.0	·
COc1ccc2c(c1)CCC/C2=N\OC(=O)c1ccccc1F	-2	39	·	1.4	17%
CC(C)c1ccc(C(CC(=O)O)N2Cc3ccccc3C2=O)cc1 (centres undefined)	·	-3	·	0.0	·
Fc1ccc(-n2nnnc2-c2cnc(-c3cccs3)nc2C(F)(F)F)cc1	24	0	-31	9.3	-3%
CCOc1ccc(-n2c(SCC(=O)NCc3ccco3)nc3c(c2=O)SCC3)cc1	-2	-8	-35	·	-4%	Arbovirus anti repeat=-3

Next part
SMILES	Arbovirus anti	Mtb betalactam	YopH inh	RecA splice inh	Mtb H37Rv	others
C1=Nc2c(NCc3ccccc3)ncnc2Oc2ccccc21	-5	2	-42	-2.9	9%
CCCNC(=O)CN1C(=O)NC(Cc2c[nH]c3ccccc23)C1=O (centres undefined)	4	2	·	5.8	-2%
Cc1ccc(-n2nc3c(=O)n(CCCC(=O)NCc4ccc(F)cc4)nc(C)c3c2C)cc1	·	1	·	-0.1	·
CCOc1ccc(N2C(=O)CC(Sc3nc(CC(C)C)ccc3C#N)C2=O)cc1 (centres undefined)	17	-8	·	-0.5	46%
CCOc1ccc(CCNC(=O)COC(=O)c2ccc(OC)c(OC)c2OC)cc1OCC	11	-9	·	-3.0	3%
COc1ccc(C(=O)/C=C/Nc2cc(C)ccn2)cc1	·	-10	·	·	-8%
S=c1[nH]nc(COc2ccc(Cl)cc2)n1C1CCCCC1	11	6	-27	0.4	9%
CCOc1cc2c(cc1OCC)-n1cccc1C(c1ccc(F)cc1)NC2 (centres undefined)	·	5	·	-1.2	·
NC(=S)COc1ccccc1	·	13	·	-0.8	2%
COc1ccc(OC)c(Cc2nnc(CCC(=O)N3CCCCCC3)o2)c1	-3	-2	·	-0.4	-2%
CC1CCN(Cc2ccc(-c3nnn(CC(=O)Nc4ccccc4Cl)n3)cc2)CC1	-8	5	·	3.2	-10%
CN(C)c1ccc(/C=C(/NC(=O)c2ccccc2)C(=O)N2CCCC2)cc1	·	-2	·	-15	·
COc1nc(-c2ccccc2)ccc1-c1noc(-c2ccccc2F)n1	-10	23	-45	1.4	-2%
CCOc1cc(CNCc2ccccn2)cc(Cl)c1OC	7	75	·	2.2	-6%
O=Cc1ccc(N2CCCC2)c(F)c1	8	46	-7	0.1	6%
Cc1ccc(NC(=O)C2(N3CCC3=O)CCCCC2)cc1	8	-5	·	·	-7%
CCN(CC(=O)Nc1cccc(Br)c1)Cc1nc2ccccc2c(=O)[nH]1	3	·	1	·	-2%
COc1ccc(N(C)S(=O)(=O)c2cccc(C(=O)NC3CCCC(C)C3C)c2)cc1 (centres undefined)	·	-6	·	-1.9	·
COc1ccc(/C=C/c2c([N+](=O)[O-])c(=O)n(C)c(=O)n2C)cc1OC	1	10	-38	0.2	4%
COC(=O)[C@@]12CCCN1[C@H](c1ccc(-c3ccccc3)cc1)[C@@H]1C(=O)N(C)C(=O)[C@@H]12	·	-4	·	0.5	·
CC(C)(C)c1ccc(C2(C)NC(=O)NC2=O)cc1 (centres undefined)	·	-10	·	-0.2	·
CCOc1ccc(OCCN(C)Cc2ccccc2)cc1	-4	21	-18	-0.9	4%
CCCN(C(=O)CSc1nc2ccccc2n1CC)C1CCS(=O)(=O)C1 (centres undefined)	·	1	·	2.6	·
CCSc1nnc(-c2ccc(S(=O)(=O)N3CCOCC3)cc2)n1CC1CCCO1 (centres undefined)	9	-3	-49	-0.9	-9%
CSc1ccc(CN(C)C(=O)c2cc(=O)c3ccccc3o2)cc1	·	5	·	0.9	·
O=C(CSc1nnc(-c2ccncc2)n1Cc1ccccc1)NC1CCCc2ccccc21 (centres undefined)	-2	-10	3	2.6	2%
CCOC(=O)Cc1c(C)nc2c(-c3ccccc3)cnn2c1C	-6	4	·	-11	-4%
CCOC(=O)Nc1ccc(NC(=O)c2c(OC)cccc2OC)cc1	-1	-3	4	0.0	-2%
CSc1ccccc1NC(=O)c1ccc(CN2CCOCC2)cc1	-3	-5	·	-5.4	7%
CC1CCN(C2=C(NS(=O)(=O)c3ccccc3)C(=O)c3ccccc3C2=O)CC1	·	-3	·	7.9	6%

Looked up by compound from the list above, 2 records:
SMILES	Arbovirus anti	Mtb betalactam	YopH inh	RecA splice inh	Mtb H37Rv	others
CC1CCN(Cc2ccc(-c3nnn(CC(=O)Nc4ccccc4Cl)n3)cc2)CC1	-8	5	·	3.2	-10%
O=Cc1ccc(N2CCCC2)c(F)c1	8	46	-7	0.1	6%

(list continues)
SMILES	Arbovirus anti	Mtb betalactam	YopH inh	RecA splice inh	Mtb H37Rv	others
COC(=O)C1C(=O)c2c([nH]c(C(=O)OCCSC)c2C)CC1C (centres undefined)	2	2	-44	4.3	-2%
O=[N+]([O-])c1ccc(N/N=C/c2cccs2)nc1	·	0	·	-3.0	·
CC(C)OP(C)(=O)CN1CCN(CP(C)(=O)OC(C)C)CC1 (centres undefined)	-1	-1	-22	7.0	-2%
COc1ccccc1/C=N/NC(=O)CN(C1=NS(=O)(=O)c2ccccc21)c1ccccc1	0	-3	-23	-7.2	-8%
Cc1cccc(-c2noc(CNC(=O)c3ccc4c(c3)OCO4)n2)c1	·	-4	·	1.5	·
CC12CCC(=O)N1C(C(=O)NNC(=O)COc1ccc(Br)cc1)CS2 (centres undefined)	·	0	·	-1.1	·
c1ccc(CNCc2ccc3c(c2)OCO3)nc1	-5	2	-14	-4.0	-5%
COc1ccc(N2C(=NC(=O)C3CCCCC3)SC3CS(=O)(=O)CC32)cc1OC (centres undefined)	·	-1	·	0.2	·
Cc1csc2c(NC3CCN(Cc4ccccc4)CC3)ncnc12	·	-8	·	3.4	-5%
O=S(=O)(c1cc(Cl)ccc1Cl)N1CCC2(CC1)OCCO2	·	0	·	2.0	·
CCOc1ccc(C2C(C(=O)/C=C/c3ccco3)=C(O)C(=O)N2CCN2CCOCC2)cc1OC (centres undefined)	1	3	·	1.7	3%
Cc1ccccc1N1C(=O)NC(=O)/C(=C\c2cc(C)n(C)c2C)C1=O	2	5	·	-0.5	-1%
COC(=O)c1ccc(N2CCN(CC(=O)c3ccc(C)cc3)CC2)c([N+](=O)[O-])c1	·	-2	·	0.9	·
CC(O)Cn1ccccc1=N (centres undefined)	4	-15	-33	-1.8	-7%
Cc1cc(C)c(NC(=O)CC(=O)c2ccccc2)c(Cl)c1	·	97	·	-0.7	·
O=C(OCc1ccc(F)cc1Cl)c1ccccn1	19	91	37	0.8	49%
COc1ccccc1NC(=O)C(=O)c1cn(CC(=O)N2CCCC2)c2ccccc12	·	8	·	0.4	·
O=C(Nc1ccc(OC(=O)c2ccccc2)c(-c2nc3ccccc3s2)c1)c1ccccc1	-3	97	-17	-1.2	-7%
COc1ccc(N2CC(C(=O)Nc3ccccc3C(=O)NC3CC3)CC2=O)cc1 (centres undefined)	·	-6	·	0.7	·
CC(/C=C/c1ccc2c(c1)OCO2)=N\NC(=O)COc1ccccc1C	-8	2	-24	·	-10%
CCCC(=O)Nc1cc(C(=O)O)ccc1S(=O)(=O)c1ccc(Cl)cc1	6	-6	-36	-0.8	-4%
Cc1c(Br)c([N+](=O)[O-])nn1C(C)C(=O)Nc1nccs1 (centres undefined)	6	12	-40	-3.3	12%
O=C(NC(NC(=O)c1ccccc1)c1cccc([N+](=O)[O-])c1)c1ccccc1	0	1	-32	-2.5	10%
CC(=O)OCC(=O)Nc1ccc(SC(F)F)cc1	2	3	·	·	5%
Cc1cccc(NC(=O)CSc2ccc(-c3ccccn3)nn2)c1C	-27	97	·	1.1	?
Fc1cccc(NC(=S)Nc2ccc(Br)cc2)c1	-30	13	-22	10	4%
Cc1ccc(F)cc1NC(=O)c1c(-c2ccccc2)noc1C	-3	2	-34	1.4	2%	Arbovirus anti repeat=5
COc1cccc(C2c3[nH]c4ccccc4c3CCN2CCCn2cccn2)c1 (centres undefined)	-1	0	·	-7.9	-2%
CCOc1ccc(N2C(=O)/C(=C/c3cccs3)N(C)C2=S)cc1	-11	-2	-32	-16	6%
COc1ccc(OC2CCN(S(=O)(=O)c3ccc(C(C)=O)cc3)CC2)cc1	·	-2	·	-1.9	·
Cc1ccc(-n2c(=O)cc(N3CCCCCC3)[nH]c2=O)cc1	4	-4	-33	-1.3	-5%
CN(C)c1ccc(C(=O)N(Cc2ccccc2)Cc2ccccc2)cc1	·	6	·	0.4	·
C/C(=N\NC(=O)c1c([N+](=O)[O-])c(C)nn1C)c1ccc(NC(=O)c2ccc(C)o2)cc1	·	-2	·	0.6	·
O=C(NC1CCCCC1)c1ccccc1-c1ccccc1	-6	97	-15	0.3	1%
CCc1ccc(C(C(=O)NC2CCCC2)N(C(=O)c2csnn2)C2CC2)cc1 (centres undefined)	·	5	·	-6.9	·
COC(=O)c1ccc(N2Cc3ccccc3/C2=N\C(=O)Nc2ccccc2)cc1	-17	2	-20	-1.5	5%
Cc1cc(Cl)ccc1OCC(=O)n1cc(C(=O)c2cc(Cl)ccc2O)cn1	16	2	·	1.4	-6%
Cn1c(SCC(=O)N2c3ccccc3CCc3ccccc32)nnc1-c1ccc(O)cc1	7	8	-15	8.1	5%
Cc1nnc(Nc2ccc(O)cc2)[nH]c1=O	-2	2	·	1.1	-6%
COc1cccc(C(=O)NNC(=O)Cc2ccc([N+](=O)[O-])cc2)c1	9	7	-22	-0.3	6%
CC1=Nn2c(nnc2-c2ccccc2F)SC1	-3	6	-21	3.0	-2%
O=C(CCC(=O)NNC(=O)Cc1ccccc1)NCc1ccccc1	6	-1	·	0.0	-13%
Cc1ccc(C(=O)Nc2ccc(Oc3cccc(C(F)(F)F)c3)nc2)cc1	·	-4	·	-0.5	2%
COc1ccc(-n2nnc3c(SCC(=O)NCC4CCCO4)ncnc32)cc1 (centres undefined)	-1	66	-40	·	·
CCOC(=O)CSc1ccc(C(=O)Nc2ccc(Cl)cc2)cn1	-2	99	·	1.0	?
CCC1(C)N=C(N)Nc2nc3cc(C)c(C)cc3n21 (centres undefined)	·	2	·	-0.8	-6%
O=C(CSc1nnc(CNC(=O)c2ccc(F)cc2)o1)NCc1ccc(F)cc1	·	-13	·	1.8	·
CCc1ccc(NC(=O)COC(=O)CN2C(=O)COc3ccccc32)cc1	8	-8	2	5.3	2%
Cc1ccc(-n2c(SCC(=O)c3c(N)n(C)c(=O)n(C)c3=O)nc3sc4c(c3c2=O)CCCC4)c(C)c1	-16	3	-9	6.1	8%
C=CS(=O)c1sc(Cl)c(N2CCOCC2)c1[N+](=O)[O-] (centres undefined)	-32	·	·	34*	46%
(next part)
SMILES	Arbovirus anti	Mtb betalactam	YopH inh	RecA splice inh	Mtb H37Rv	others
CCCS(=O)(=O)N1CCN(S(=O)(=O)c2ccc(F)cc2)CC1	6	-7	0	1.2	-8%
COc1ccc(N(CCC(=O)O)S(=O)(=O)c2ccc(C)c(C)c2)cc1	·	-2	·	0.4	-10%
COc1ccccc1C=NC(CO)C(O)c1ccc([N+](=O)[O-])cc1 (centres undefined)	-2	-1	11	0.3	0%
COC(=O)[C@@]12CCCN1[C@H](c1ccc(-c3cccc(Cl)c3)cc1)[C@H]1C(=O)N(C)C(=O)[C@H]12	·	4	·	4.1	·
COC(=O)c1cccc(NC(=S)NCc2ccc(Cl)cc2)c1	3	-6	-44	1.4	2%
c1ccc(CSc2nnc(-c3cccnc3)o2)cc1	-16	72	9	-4.0	10%
Cc1ccc(-c2nnc(-c3ccccc3)c(-c3ccccc3)n2)cc1	-3	7	-23	20	37%
